# Bioassay records: PubChem BioAssay, National Center for Advancing Translational Sciences (NCATS)
# Menin MLL FP FL – displaces fluorescein MLL peptide from human menin. Fluorescence polarization, fluorescein-MLL peptide displacement from menin. FP activity change, % at 61.4 µM. 290,000 tested, under 10 active; inconclusive = falling polarisation curve, or a change in total fluorescence; inactive = total fluorescence flat and polarisation flat or rising; no compound was filed as active; the % refers to the polarisation; negative = inhibition;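 also: % of control where 0% means no effect; inhibitors lower the polarisation; unlabelled MLL peptide was the positive control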
# gsp antag – gsp mutant antagonism; gsp-mutant cells, cAMP HTRF, 30 min; control for the full effect not named in the record; Potency, µM (doses to about 76.9 µM), for the others: at the highest dose activity change, negative = inhibition, hits mostly inhibitors; actives 0.4% (n = 340,000); AID 624288; active = falling curve of any shape with a large fitted effect; inconclusive = falling curve, mostly with a smaller effect; inactive = flat or rising curve; cell line not stated here;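 also: intracellular cAMP measured with PDE inhibitor Ro 20-1724 present during compound exposure; potency is read from the fitted curve at half-maximal effect; % is scaled to controls: 0 for no effect and ±100 for the full control effect; nearly all actives have a fitted effect of over 65% in size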
#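 HTRF cAMP measurement after 30 min RT detection following 30 min, 37C compound treatment alongside […] (added as 300 uM solution) in G418-selected cells seeded at 2000/well and grown 16–24 h.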
# PINK1 modulator – changes PINK1 expression; PINK1 immunofluorescence, high-content cytometry, 24 h; Potency, µM (titrated, usually from 76.6 µM), for the others: at the highest dose activation (PINK1 increase), most hits filed as activators; actives 0.2% (n = 410,000); active = well fitted activation curve with a large enough effect; inconclusive = small, poorly fitted or top-dose-only effect; inactive = flat fitted curve, though single readings scatter; cell line not stated here;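 also: potency is read from the fitted curve at half-maximal effect; % of control where 0% means no effect; nearly all actives have a fitted effect of over 65% in size; a mitochondrial uncoupler was the plate control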
#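 Stable cell line treated 24 h with compounds at 5 concentrations (CCCP controls), then fixed and immunostained for PINK1 plus nuclear and cell stains; PINK1 immunofluorescence quantified by laser-scanning microplate cytometry.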
# gsp ag – agonists of gsp mutant (McCune-Albright syndrome). gsp mutant cells, cAMP HTRF, 30 min; control for the full effect not named in the record. Potency, µM (doses to about 76.9 µM), for inactives: top-dose activation (cAMP increase), actives largely listed as activators. actives 0.13% (n = 340,000). AID 624287; active = well fitted activation curve with a large enough effect; inconclusive = small, poorly fitted or top-dose-only effect, or another doubt; inactive = no such curve, though single readings can be large or run the other way; cell line not stated here;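 also: phosphodiesterase inhibitor Ro 20-1724 added with compounds to block cAMP breakdown; potency is read from the fitted curve at half-maximal effect; nearly all actives have a fitted effect of over 60% in size; about a fifth of the inactives were tested at one dose only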
#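 Cells in DMEM/10% FBS with G418 were pretreated with compounds in DMSO plus […] (300 uM stock) for 30 min at 37C. cAMP was measured by HTRF (cAMP-d2 plus anti-cAMP antibody-K) after 30 min at room temperature.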
# ClpP mod – qHTS Assay for Activators of ClpP. purified B. subtilis ClpP, FRET peptide cleavage, 20 min. Potency, µM (series often up to 57.5 µM), for inactives: at the highest dose activity change, negative = active. actives 1.9% (n = 340,000). ATP-dependent Clp protease proteolytic subunit (Bacillus subtilis (strain 168)), P80244; active = well fitted falling curve with a large enough effect; inconclusive = small, poorly fitted or top-dose-only effect; inactive = no such curve, though single readings can be large or run the other way; also: potency is read from the fitted curve at half-maximal effect; the source files actives as falling curves though it sought activators and does not explain the sign; nearly all actives have a fitted effect of over 65% in size; many hits overshoot -100%
# Target sequence (P80244 whole entry, looked up): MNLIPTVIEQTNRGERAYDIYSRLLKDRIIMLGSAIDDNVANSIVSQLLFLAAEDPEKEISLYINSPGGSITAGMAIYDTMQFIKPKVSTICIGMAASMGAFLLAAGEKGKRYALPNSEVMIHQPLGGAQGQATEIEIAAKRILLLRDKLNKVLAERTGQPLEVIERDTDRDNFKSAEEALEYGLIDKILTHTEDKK
#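 FRET quenching reversal measured ClpP activation: 10 microg/mL B. subtilis ClpP at pH 8 with the FRET-FV decapeptide, read at 430 nm after 320 nm excitation. The 20-min minus 0-min signal was scaled between DMSO/no-enzyme wells and ADEP (5.8 microM final).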
# D2 agonist – agonists of human D2 dopamine receptor (beta-arrestin). DiscoveRx PathHunter D2 beta-arrestin, luminescence, 90 min; 100% = 57 uM dopamine signal. activation, % (concentration not given with the values). actives 0.084% (n = 360,000). AID 624465; in the data active = activation above about 40%; inconclusive = about 15% to 40%; inactive = below about 15%; also: compound concentration not given in the record; the text of the record calls up to 30% inactive
# Target sequence (P14416 whole entry, looked up): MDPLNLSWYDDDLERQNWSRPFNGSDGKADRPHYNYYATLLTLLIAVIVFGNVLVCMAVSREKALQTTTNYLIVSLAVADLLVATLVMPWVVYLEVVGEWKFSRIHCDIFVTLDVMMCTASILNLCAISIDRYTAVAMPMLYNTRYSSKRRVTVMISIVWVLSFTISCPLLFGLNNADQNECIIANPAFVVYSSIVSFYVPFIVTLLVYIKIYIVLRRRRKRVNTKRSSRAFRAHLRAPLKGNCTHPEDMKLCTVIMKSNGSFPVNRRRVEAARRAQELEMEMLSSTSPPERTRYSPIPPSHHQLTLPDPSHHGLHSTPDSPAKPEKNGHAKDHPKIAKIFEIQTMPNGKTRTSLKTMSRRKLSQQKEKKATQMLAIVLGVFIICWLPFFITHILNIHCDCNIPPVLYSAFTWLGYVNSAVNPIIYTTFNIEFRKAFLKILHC
#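 DiscoveRx PathHunter D2 beta-arrestin cells (2,100/well) attached overnight, then compound-stimulated 90 min at 37 C in HBSS/10 mM HEPES/0.1% Tween-20 buffer; beta-galactosidase complementation read by luminescence after 1 h at ambient temperature. Dopamine 57 uM final (EC100) as control.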
# Sfp inh – Sfp phosphopantetheinyl transferase inhibition. Biochemical Sfp PPTase activity, qHTS. Potency, µM, inactives show max response, negative = inhibition, actives largely listed as inhibitors. actives 3.5% (n = 310,000). AID 1490; active = well fitted inhibition curve with a large enough effect; inconclusive = small, poorly fitted or top-dose-only effect, or another doubt; inactive = no such curve, though single readings can be large or run the other way;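 also: the enzyme is Sfp with the accession as filed and its product quenches rhodamine fluorescence; potency is read from the fitted curve at half-maximal effect; 0% = enzyme reaction without inhibitor and -100% = no enzyme wells; top concentration of the series not given in the record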
#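 After 15 min at room temperature with compound, 15 nM Sfp received 5 uM rhodamine-CoA plus 12.5 uM BHQ-2-ybbR (50 mM Hepes pH 7.6, 10 mM MgCl2). Rate came from the fluorescence difference over 30 min, ex 525/em 598 nm.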
# An asterisk follows results filed as active; ? = inconclusive; / = no result given; & = joins results of further samples; [ ] = another dose, or the depositor's remark.
SMILES,Menin MLL FP FL,gsp antag,PINK1 modulator,gsp ag,ClpP mod,D2 agonist,Sfp inh
CCOC(=O)C1CCCN(c2c(NCCc3ccc(C)cc3)c(=O)c2=O)C1 (stereo unspecified),-0.1,-1.5%,0.7%,0.1%[15.4 µM],/,-1.5,19.4%
Cc1ccccc1-c1cc2nc(NCCN3CCCC3)n(C)c(=O)c2s1,/,/,11.3%,/,-13.1%,4.8,/
C=CC[C@@H](Cc1ccc(F)cc1)C(=O)OC[C@H]1CCCN1C(=O)[C@@H](CC=C)CC(=O)N[C@H](CO)Cc1ccccc1,/,-19.2%,-1.0%,/,0.1%,0.6,/
COc1ccc(N2CCN(C(=O)NCc3ccc(OC)c(Cl)c3)CC2)cc1,0.6,6.7%,7.8%,-8.7%[15.4 µM],/,-2.5,9.4%
CC1CCN(C(=O)COC(=O)C(C)N2C(=O)c3ccccc3C2=O)CC1 (stereo unspecified),/,1.6%,-1.2%,-42.9%[inhibitor],0.8%,0.9,/
CCN1CCN(c2nc(C)c3c(n2)CCCC3=O)CC1,0.5,12.4%,1.8%[38.3 µM],8.5%,-0.7%,-1.4,3.2%
COCCCNc1nc2ccccc2nc1NS(=O)(=O)c1ccc(F)cc1,-3.1,-8.5%,0.8%,-1.3%,3.6%,0.7,8.1%
Cc1sc2c(c1C)c(=O)n(-c1cccc(C(F)(F)F)c1)c(=O)n2CC(=O)NCc1ccco1,2.2,1.2%,2.1%,9.8%,0.9%,-5.0,-23.9%
N/C(=N\OC(=O)c1ccc([N+](=O)[O-])cc1)c1ccc(Br)cc1,-3.8,1.8%,0.7%,-32.3%[inhibitor],/,13.8,2.4%
CSCCC(NS(=O)(=O)c1ccc(C)c(C(=O)O)c1)C(=O)O (stereo unspecified),1.0,0.8%,-1.9%,17.4%,/,-0.2,-0.7%
Cc1ccc(C(=O)OCC(=O)N(C)C2CCS(=O)(=O)C2)cc1[N+](=O)[O-] (stereo unspecified),0.3,3.3%,0.1%,-0.7%,-1.1%,-2.6,4.1%
CCCS(=O)(=O)Nc1cccc(-c2ccc3nnc(C)n3n2)c1,1.3,-4.8%,1.8%,16.8%,-1.3%,0.1,7.3%
COc1ccc(Cn2c(=O)cc(N)n(-c3ccccc3C)c2=O)cc1,-0.6,28.6%,3.0%,12.1%[15.4 µM],/,-0.8,10.6%
O=C(Cn1cnc2c(nnn2Cc2ccc(F)cc2)c1=O)OCc1ccccc1,0.1,-14.1%,/,?,-2.6%,-1.5,3.3%
CN(C)S(=O)(=O)c1ccc(C(=O)Nc2nc3ccccc3[nH]2)cc1,0.4,6.2%,1.5%,-1.4%[15.4 µM],/,2.2,16.0%
Nc1cc2c(cc1C(=O)c1ccccc1)OCCO2,-1.2,4.8%,-0.8%,1.0%,-0.2%,-3.5,7.1%
COc1ccc(-c2cc(C(=O)NCCCN3CCCC3=O)c3ccccc3n2)cc1,/,0.5%,0.8%,26.9%,?,-4.7,/
Cc1ccccc1NS(=O)(=O)c1ccc(C(=O)NCc2ccccc2CN2CCCC2)cc1,/,/,2.5%,5.4%,0.8%,-1.8,/
CCC(C(=O)OC(C)C)c1ccc2ccccc2c1 (stereo unspecified),/,1.4%,6.5%,/,-2.7%,-1.0,/
CCCCC(=O)N(C)c1c(C)nc2ccc(C(=O)N3CCN(S(=O)(=O)CC)CC3)cn12,/,/,0.0%,/,-1.4%,-3.0,/
CCCN(CC(=O)Nc1cc(Cl)ccc1Cl)C(=O)c1ccc2n[nH]nc2c1,/,-8.5%,3.0%,-1.6%,-1.7%,2.1,/
COCCCN(C(=S)Nc1c(C)cc(C)cc1C)C(C)c1ccncc1 (stereo unspecified),1.8,8.1%,1.2%,-30.4%[inhibitor],-1.3%,-1.6,-24.2%
CC(=O)Oc1ccc2c(=O)c(N3C(=O)c4ccccc4C3=O)c(C)oc2c1C,-0.1,-1.0%,-0.1%,-3.8%[15.4 µM],0.2%,1.0,9.5%
CCCn1c(Nc2cccc(OC)c2)nc2ccccc21,1.0,-4.4%,-0.1%,-9.4%,-2.7%,2.9,11.4%
N#CCc1nnc2n1-c1ccccc1CCC2,-0.1,3.5%,9.5%[38.3 µM],-48.9%[inhibitor],-0.3%,-0.5,-8.9%
O=C(Nc1ccc(C(=O)O)cc1)/C(=C\C=C\c1ccccc1)NC(=O)c1ccccc1Cl,/,-7.4%,0.9%,12.0%[15.4 µM],1.5%,-4.1,10.6%
CC(=O)c1cccc(NC(=O)C2CCN(C(=O)c3ccccc3Cl)CC2)c1,/,-4.8%,1.8%,21.2%,-6.9%,-5.5,-3.6%
COc1ccccc1N1CCN(C(=O)CSc2nnc3c4ccccc4n(CC(=O)O)c3n2)CC1,1.7,15.2%,2.9%,-6.2%,1.1%,-6.9,-20.7%
CN(Cc1cnn(C)c1)S(=O)(=O)c1cccc([N+](=O)[O-])c1,1.7,/,-0.2%,-10.6%[15.4 µM],/,6.5,7.3%
c1ccc(Nc2nnc(-c3cccnc3)s2)cc1,-0.1,11.9%,11.4%,0.6%[15.4 µM],0.2%,-1.5,12.0%
N#CC1=C(N)OC2=C(C(=O)CCC2)C12C(=O)N1CCCc3cccc2c31 (stereo unspecified),0.2,3.6%,2.3%,-9.6%,-0.2%,2.0,0.0%
O=C(Cn1nnc2ccccc2c1=O)NCCc1ccccc1,8.0,7.7%,3.7%,0.8%,-0.5%,-3.7,10.0%
COCCNC(=S)N(CCc1c(C)[nH]c2ccc(Cl)cc12)Cc1cccnc1,1.2,?,0.0%,-6.2%,1.7%,-2.9,-5.0%
O=C(NNC(=O)c1ccc([N+](=O)[O-])cc1)NC1CCCCC1,-1.6,7.0%,0.0%,-11.9%,-0.5%,0.0,5.2%
COC(=O)c1sc2nc(C)nc(SCC(=O)C(C)(C)C)c2c1C,1.1,?,-0.5%,?,-18.1%,-2.0,-18.5%
O=C(COC(=O)/C=C/c1cccs1)Nc1ccc2ccccc2c1,7.4,2.8%,5.8%,-24.4%,-6.3%,-3.1,-0.3%
COc1cc(/C=C/C(=O)OCC(=O)NCc2ccco2)ccc1O,/,15.2%,10.8%,-0.4%,-2.7%,-2.1,/
CCN(Cc1ccncc1)C(=O)CCc1nnc(CCc2ccccc2OC)o1,-3.4,14.4%,0.5%,0.1%,-1.7%,-4.2,18.6%
O=[N+]([O-])c1ccc(/C=N/Nc2nc(NCc3ccccc3)nc(N3CCOCC3)n2)cc1,4.1,-29.0%,11.4%,-11.9%,0.4%,5.0,-8.7%
O=C(NC(=S)Nc1ccccn1)c1cncc(Br)c1,1.4,-11.8%,-1.8%,27.7%,6.1%,-5.5,3.5%
COc1ccc2cc3cc(C(=O)N4CC(C)CC(C)C4)oc3nc2c1 (stereo unspecified),/,?,0.6%,-3.6%,?,2.0,1.5%
CN(Cc1cccnc1)Cc1cn[nH]c1-c1ccc(-c2ccccc2)cc1,-1.4,-10.3%,-3.3%,36.7%[15.4 µM],/,-2.3,-2.1%
CCOC(=O)Cn1c(=O)n(Cc2ccccc2)c(=O)c2cccnc21,-12.5,-5.4%,2.4%,-10.8%,-23.3%,-10.8,-5.4%
CCc1nn2c(=O)c(S(=O)(=O)Nc3ccc(C(C)C)cc3)c(C)nc2s1,-0.1,-8.4%,1.8%&0.2%,9.0%,2.0%&-0.8%,-5.0,-9.7%
CC(C)CN(C(=O)COC(=O)COc1ccc2c(c1)CCC2)c1c(N)n(Cc2ccccc2)c(=O)[nH]c1=O,/,8.4%,?,-16.9%,1.2%,-5.2,/
COc1ccc(/C=N/NC(=O)c2nc(-c3ccccc3)n(-c3ccccc3)n2)cc1OC,3.7,-10.2%,0.0%,-6.2%,-5.9%,-1.6,-14.6%
CCn1c(SCC(=O)Nc2nonc2C)nnc1-c1ccco1,-1.8,-0.7%,-2.1%,-44.6%,0.0%,-1.3,4.7%
CCn1cc(Cl)c(C(=O)NNC(=O)CCn2ccc([N+](=O)[O-])n2)n1,/,12.6%,-0.3%,8.1%,-1.5%,-2.8,9.2%
O=S(=O)(c1ccc(F)cc1)n1cnc2ccccc21,2.9,0.4%,1.7%,-42.9%[inhibitor],/,3.1,1.0%
CN1CCN(c2ccc(NC(=O)CSc3ccccc3)cc2F)CC1,1.7,15.6%,-2.2%,-25.6%,1.4%,-1.1,-0.3%
COc1ccc(S(=O)(=O)N2CCOCC2)cc1NC(=O)Cc1c(F)cccc1Cl,/,24.8%,8.0%,-82.9%[inhibitor],0.3%,-2.4,/
O=C1c2ccccc2-c2c1c1ccccc1c(=O)n2CCO,/,-5.5%,-6.8%,-4.3%,-2.1%,-2.1,/
COc1cccc(CNC(=O)CSC(=S)N2CCCC2)c1,/,4.4%,-0.4%,-14.5%[15.4 µM],/,-0.7,/
CC(C)Oc1ccc(S(=O)(=O)N2CCOCC2)cc1NC(=O)CN1C(=O)c2ccccc2C1=O,/,-12.0%,2.4%,?,-1.7%,-1.5,/
Cc1sc2ncnc(N/N=C/c3cccc(O)c3)c2c1C,0.0,-31.8%,-0.9%,-2.5%[15.4 µM],-0.4%,-3.2,-13.1%
C(=N\Nc1nc2ccccc2s1)/c1ccccn1,-1.9,-1.6%,?,-7.7%[15.4 µM],-0.5%,-9.3,3.8%
CCN1C(=O)[C@H]2[C@@H](c3ccc(C)cc3)N3C(=O)N(c4ccc(C)cc4)C(=O)[C@@]3(CC)[C@H]2C1=O,/,0.0%,-1.5%,/,-1.3%,-2.3,/
COc1ccc([N+](=O)[O-])cc1-c1nc2ccccc2nc1-c1ccccc1,-4.0,-3.4%,0.6%,-82.1%[inhibitor],-0.3%,-0.2,7.2%
Clc1ccc(-n2nnnc2CN2CCCCC2)cc1Cl,0.1,-15.1%,2.5%[38.3 µM],-2.7%,1.0%,-2.7,-3.8%
COc1ccc(NC(=O)CN2CCCCCC2)cc1OC,-1.1,-1.5%,-0.4%,16.2%[15.4 µM],/,-2.2,11.0%
COC(=O)CCc1nc2ccccc2[nH]c1=O,1.8,10.6%,3.7%[38.3 µM],-47.4%[inhibitor],?,-2.6,9.8%
O=C(CSc1nc(O)cc(=O)[nH]1)Nc1ccc2c(c1)CCC2,2.0,-2.8%,2.4%,11.6%,-1.2%,0.5,3.1%
Cc1ccc(S(=O)(=O)CC(=O)Nc2nccs2)cc1,/,-2.4%,0.4%,28.2%[15.4 µM],/,-1.7,/
